# Screens: PubChem, Broad Institute
# FGF22 binding: shifts melting point of recombinant human FGF22; recombinant FGF22 thermal shift, SYPRO orange fluorescence; percent of sucrose octasulfate shift, DMSO zero; AID 651658; 340,000 tested, 1.5% active; calls only at 9.99 µM; Q9HCT0;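 active = melting point raised past a set limit in the mean and every replicate; three in four hits are not shown here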
# Target sequence (Q9HCT0 whole entry, looked up): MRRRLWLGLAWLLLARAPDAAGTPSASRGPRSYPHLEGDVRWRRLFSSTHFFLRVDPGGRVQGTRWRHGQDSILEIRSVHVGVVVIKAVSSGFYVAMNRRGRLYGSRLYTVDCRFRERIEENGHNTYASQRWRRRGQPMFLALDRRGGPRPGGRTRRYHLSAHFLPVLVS
# AF4-AF9 inh: blocks AF4 peptide binding to human AF9. P42568. AlphaScreen, biotin-AF4 peptide binding to FLAG-AF9. inhibition, % at 10 µM. 350,000 tested, 0.47% active;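 active = every replicate reaching a set inhibition limit, whatever the replicate mean, cut at about 25% in these data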;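 also: 0% = plate neutral control median and 100% = total signal loss; the record names both 10 and 1 µM as test concentration; the first replicate is given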
# Target sequence (P42568 whole entry, looked up): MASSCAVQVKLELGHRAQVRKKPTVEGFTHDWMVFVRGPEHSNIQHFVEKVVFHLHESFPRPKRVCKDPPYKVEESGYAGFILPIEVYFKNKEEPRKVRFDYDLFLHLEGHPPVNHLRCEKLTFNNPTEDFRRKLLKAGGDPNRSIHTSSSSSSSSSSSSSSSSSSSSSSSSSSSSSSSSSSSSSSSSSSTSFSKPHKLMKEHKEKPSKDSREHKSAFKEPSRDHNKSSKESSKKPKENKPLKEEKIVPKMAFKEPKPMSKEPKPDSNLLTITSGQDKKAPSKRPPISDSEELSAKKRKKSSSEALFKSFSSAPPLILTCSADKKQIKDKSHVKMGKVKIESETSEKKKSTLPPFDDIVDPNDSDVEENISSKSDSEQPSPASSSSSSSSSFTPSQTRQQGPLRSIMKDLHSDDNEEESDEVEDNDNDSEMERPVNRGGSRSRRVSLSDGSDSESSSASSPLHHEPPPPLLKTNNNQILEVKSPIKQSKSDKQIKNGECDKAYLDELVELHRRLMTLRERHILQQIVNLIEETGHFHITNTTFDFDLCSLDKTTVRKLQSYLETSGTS
# Ecoli rRNA inh: selective bacterial rRNA inhibition in E. coli | E. coli WT GFP vs humanized-ribosome RFP mutants, fluorescence, 24 h; hits give low values; DMSO median 0, no signal -100 | GFP signal change (wild-type ribosome), % (test concentration not listed) | 350,000 tested, 1.6% active | AID 720706;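 active = significant combined selectivity score with lowered wild-type GFP, culture density cut under 30%, mutant RFP and density less affected; inactive = any of these conditions unmet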; also: one replicate is shown; some compounds called inactive have numbers as strong as hits
# Ecoli rRNA inh OD600: further read-out of Ecoli rRNA inh, marked with its call; OD600 change, %; measured here: OD600 growth;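 optical density of the mix in the first replicate; 0 = DMSO median and -100 = no signal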
# Ecoli rRNA inh RFP: recorded beside Ecoli rRNA inh, whose call it bears; RFP signal change, %; measured here: RFP humanized mutant strains;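 first replicate; 0 = DMSO median and -100 = no signal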
# Active calls of the source: *; i = inactive; . = not tested or not shown; & = joins results of further samples. Some of the compounds tested; rates above refer to the full screens.
SMILES,FGF22 binding,AF4-AF9 inh,Ecoli rRNA inh,Ecoli rRNA inh OD600,Ecoli rRNA inh RFP
CC=Cc1ccc2n(c1=O)C[C@@H]1[C@@H](CO)[C@H](C(=O)N[C@@H](C)c3ccccc3)[C@H]2N1Cc1ccccc1 (mixture of isomers),i,1.6,-1.8,-3.7,4.4
COc1ccc(NC(=O)N(C)C[C@@H]2Oc3c(NC(=O)c4ccc(-c5nccs5)cc4)cccc3C(=O)N([C@H](C)CO)C[C@@H]2C)cc1,i,-0.5,-4.9,-12.1,0.9
C[C@H](CO)N1C[C@H](C)[C@H](CN(C)S(=O)(=O)c2ccc(F)cc2)OCCCC[C@H](C)Oc2ccc(NC(=O)c3ccncc3)cc2C1=O,i,3.2,-4.5,-3.9,-1.6
CCCNC(=O)[C@H]1[C@H](CO)[C@H]2Cn3c(cccc3=O)[C@H]2N1CC1CCCCC1,i,-3.9,1.7,-1.5,-0.4
N#C[C@@H]1[C@H](c2ccc(C3=CCCCC3)cc2)[C@@H](CO)N1S(=O)(=O)c1ccccc1,i,2.6,-26.5,-54.2,9.4
COc1ccccc1CN1CC(C(=O)NCC2(O)CCCCC2)CCC1=O (centres undefined),i,-0.2,13.1,8.0,3.0
COc1ccc(CN(C)C[C@H]2Oc3ccc(NS(C)(=O)=O)cc3C(=O)N([C@H](C)CO)C[C@H]2C)cc1,i,-3.3,5.1,9.0,-0.3
COCC(=O)N1CCC2(CC1)CN(C(=O)Cc1ccccc1)[C@@H](CO)c1c2c2ccc(OC)cc2n1C,i,-7.8,-1.1,-7.9,-1.1
C[C@H](CO)N1C[C@H](C)[C@@H](CN(C)C(=O)Nc2cccc3ccccc23)Oc2ccc(NC(=O)Nc3ccccc3)cc2C1=O,i,1.5,0.2,1.4,2.7
O=C(C1CCCC1)N1C[C@H]2[C@@H](c3ccccc31)[C@@H](CO)N2C(=O)c1ccccc1F,i,-4.0,5.5,7.6,-1.9
COc1ccccc1CNC(=O)C[C@H]1C=C[C@@H](NC(C)=O)[C@@H](CO)O1,i,-0.4,0.4,-2.8,-0.9
O=C(C[C@H]1CC[C@@H]2NC[C@H](O)COC[C@H]2O1)Nc1ccc(-c2ccccc2)cc1,i,0.8,i,.,.
C[C@H](CO)N1C[C@H](C)[C@@H](CN(C)C(=O)Nc2ccccc2F)Oc2ncc(-c3ccc(F)cc3)cc2C1=O,i,-2.4,-0.8,8.8,1.0
Cc1ccc(S(=O)(=O)N[C@@H]2CC[C@@H](CCNC(=O)c3ccc4c(c3)OCO4)O[C@@H]2CO)cc1,i,-0.6,2.2,2.4,-1.5
CC(C(=O)NC(C)(C)C)n1c(-c2ccccc2)nc2ccccc21 (centres undefined),i,-2.5,1.4,9.1,2.3
C[C@@H]1CN([C@H](C)CO)C(=O)c2cc(-c3ccc(F)cc3)cnc2O[C@H]1CN(C)C(=O)Cc1ccccn1,i,-0.7,2.2,-2.7,0.8
COc1ccc(CN(C)C[C@@H]2Oc3ccc(NS(=O)(=O)c4ccc(F)cc4)cc3C(=O)N([C@@H](C)CO)C[C@H]2C)cc1,i,-1.4,1.3,4.9,-0.7
C[C@@H]1CCCCO[C@@H](CN(C)C(=O)CCCN(C)C)[C@H](C)CN([C@H](C)CO)C(=O)c2cc(NC(=O)Nc3cccc4ccccc34)ccc2O1,i,-2.4,0.4,1.9,4.5
CCC(=O)N1CC2(C1)[C@H](c1ccccc1)[C@@H](CO)N2CCC(F)(F)F,i,1.5,1.7,5.2,0.6
O=S(=O)(Cc1ccccc1)N1CCCCN2[C@H](CO)[C@@H](c3ccc(-c4ccc(F)cc4)cc3)[C@H]2C1,i,-3.9,-6.8,6.7,24.8
C[C@@H]1CN([C@H](C)CO)S(=O)(=O)c2ccc(-c3ccc(C(=O)N(C)C)cc3)cc2O[C@H]1CN(C)C(=O)C1CCC1,i,-0.9,-0.6,-4.7,-2.3
CC(=O)N(C)C[C@@H]1Oc2cc(C#CC(C)C)ccc2S(=O)(=O)N([C@H](C)CO)C[C@@H]1C,i,-0.7,-1.6,5.7,0.6
COc1ccccc1CN1CC[C@H]2[C@H](CO)Nc3ccc(-c4ccc(C(=O)N(C)C)cc4)cc3[C@H]21,i,-0.5,-8.6,-14.4,2.3
O=C(Cc1ccccc1)N[C@@H]1CC[C@H](CC(=O)N2CCOCC2)O[C@@H]1CO,i,-10.3,1.9,0.6,-0.9
Cc1noc(C)c1S(=O)(=O)Nc1ccc2c(c1)C(=O)N([C@H](C)CO)C[C@H](C)[C@@H](CN(C)CC1CC1)O2,i,-1.8,0.7,2.1,0.5

# (continued)
SMILES,FGF22 binding,AF4-AF9 inh,Ecoli rRNA inh,Ecoli rRNA inh OD600,Ecoli rRNA inh RFP
CCc1noc(C)c1C(=O)N1CCN(c2ccc([N+](=O)[O-])cc2)CC1,i,3.7,1.2,2.7,8.4
CCCNC(=O)C[C@H]1CC[C@H]2[C@@H](COC[C@@H](O)CN2C(=O)c2ccc(F)cc2)O1,i,-2.2,1.8,1.1,0.1
CCCc1cn(CC[C@H]2CC[C@H](NC(=O)C3CCCCC3)[C@@H](CO)O2)nn1,i,-1.1,2.7,3.9,-4.4
C[C@H](CO)N1C[C@H](C)[C@@H](CN(C)C(=O)c2ccccn2)Oc2cc(Br)ccc2S1(=O)=O,i,-4.3&-10.7,-9.3&5.6,-0.4&5.5,1.4&-0.3
Cc1noc(C)c1NC(=O)Nc1ccc2c(c1)C(=O)N([C@@H](C)CO)C[C@@H](C)[C@H](CN(C)C(=O)NC(C)C)OCCCC[C@@H](C)O2,i,-3.4,0.9,2.6,-0.8
O=S(=O)(c1cccs1)N1CCCCN2[C@H](CO)[C@H](c3ccc(C4=CCCC4)cc3)[C@H]2C1,i,-1.4,-26.5,-60.4,-2.5
COCC(=O)N1CC[C@@H]2[C@H](CO)Nc3ccc(-c4ccc(C(=O)N(C)C)cc4)cc3[C@@H]21,i,2.7,1.9,9.3,0.9
CCCNC(=O)N1[C@H](C#N)[C@@H](c2ccc(-c3cccc(OC)c3)cc2)[C@H]1CO,i,-1.2,1.7,-22.2,0.4
CC(C)CC#Cc1cnc2c(c1)C(=O)N([C@H](C)CO)C[C@@H](C)[C@H](CN(C)C(=O)Cc1ccncc1)O2,i,-1.0,-3.6,-7.9,-2.8
C[C@@H]1CN([C@H](C)CO)C(=O)c2cc(N(C)C)ccc2O[C@@H](C)CCCCO[C@@H]1CN(C)S(=O)(=O)c1cn(C)cn1,i,-1.6,-0.3,9.4,0.6
Cc1ccc(S(=O)(=O)Nc2ccc3c(c2)C(=O)N([C@H](C)CO)C[C@H](C)[C@H](CN(C)C(=O)Nc2ccc4c(c2)OCO4)OCCCC[C@H](C)O3)cc1,i,-0.3,-3.5,1.8,-4.4
CCCCN(C=O)c1c(CC)nc2c(OCC3CCCCC3)cccn12,i,-4.5,-48.3,-76.1,-17.8
C[C@@H]1CN([C@H](C)CO)C(=O)c2c(c3ccccc3n2C)-c2ccccc2CO[C@H]1CN(C)Cc1cccc(C(=O)O)c1,i,-17.5,3.9&2.0,10.4&5.9,-2.2&-1.6
CCCCN1C(=O)C(CC(=O)NCCN2CCOCC2)CC(C(=O)N(CC)CC)=C1C (centres undefined),i,-1.1,11.8,4.9,3.4
C[C@@H]1CN([C@H](C)CO)S(=O)(=O)c2ccc(C3=CCCCC3)cc2O[C@@H]1CN(C)Cc1ccncc1,i,13.5,-39.9,-49.2,15.9
C[C@@H]1CCCCO[C@@H](CN(C)C(=O)CCCN(C)C)[C@H](C)CN([C@@H](C)CO)C(=O)c2cc(NC(=O)CCCN(C)C)ccc2O1,i,-1.6,0.8,1.2,-4.0
Cc1ccccc1S(=O)(=O)N(C)C[C@H]1OCc2cn(nn2)CCCC(=O)N([C@H](C)CO)C[C@@H]1C,i,0.9&-0.7,2.5&26.0,-2.2&17.1,-0.4&2.6
O=C(C[C@@H]1CC[C@H]2[C@@H](COC[C@@H](O)CN2S(=O)(=O)c2ccc(F)cc2)O1)NCC1CCCCC1,i,30.8*,-1.7,4.8,1.7
Cc1noc(C)c1NC(=O)N(C)C[C@H]1Oc2ccc(NC(=O)CCCN(C)C)cc2C(=O)N([C@H](C)CO)C[C@H]1C,i,-2.8,3.0,5.8,-0.7
COc1ccc(Nc2nc3cc(-c4sccc4C)sc3c(=O)n2C)cc1OC,i,5.5,1.3,12.2,5.1
C[C@H]1CN([C@@H](C)CO)C(=O)c2cccc(NS(=O)(=O)c3cn(C)cn3)c2O[C@H]1CN(C)S(=O)(=O)c1cccs1,i,-3.9,1.2,-3.9,0.3
CC1=C(C(=O)N(C)C)CC(CC(=O)NC2CC2)C(=O)N1Cc1ccccc1 (centres undefined),i,-0.3,13.2,7.2,0.1
C[C@H]1CN([C@@H](C)CO)C(=O)Cc2cc(NC(=O)Nc3ccc(C(F)(F)F)cc3)ccc2O[C@@H]1CN(C)C(=O)Nc1ccc2c(c1)OCO2,i,5.7,-3.3,-11.8,1.9
Cc1ccc(S(=O)(=O)NCC[C@@H]2CC[C@@H](NC(=O)c3cccnc3)[C@H](CO)O2)cc1,i,-0.7,0.2,9.9,0.4
C[C@@H]1CN([C@H](C)CO)C(=O)c2cc(/C=C/c3ccccc3)cnc2O[C@@H]1CN(C)C(=O)c1ccccc1,i,3.7,2.6,14.7,0.7

# Compound profiles (already shown). Values in the order: FGF22 binding	AF4-AF9 inh	Ecoli rRNA inh	Ecoli rRNA inh OD600	Ecoli rRNA inh RFP
# O=S(=O)(c1cccs1)N1CCCCN2[C@H](CO)[C@H](c3ccc(C4=CCCC4)cc3)[C@H]2C1 in the list: i	-1.4	-26.5	-60.4	-2.5
# COc1ccc(CN(C)C[C@@H]2Oc3ccc(NS(=O)(=O)c4ccc(F)cc4)cc3C(=O)N([C@@H](C)CO)C[C@H]2C)cc1 in the list: i	-1.4	1.3	4.9	-0.7
# C[C@@H]1CCCCO[C@@H](CN(C)C(=O)CCCN(C)C)[C@H](C)CN([C@H](C)CO)C(=O)c2cc(NC(=O)Nc3cccc4ccccc34)ccc2O1 in the list: i	-2.4	0.4	1.9	4.5
# CCC(=O)N1CC2(C1)[C@H](c1ccccc1)[C@@H](CO)N2CCC(F)(F)F in the list: i	1.5	1.7	5.2	0.6
# O=C(Cc1ccccc1)N[C@@H]1CC[C@H](CC(=O)N2CCOCC2)O[C@@H]1CO in the list: i	-10.3	1.9	0.6	-0.9

# Other records follow:
SMILES,FGF22 binding,AF4-AF9 inh,Ecoli rRNA inh,Ecoli rRNA inh OD600,Ecoli rRNA inh RFP
CC(C)NC(=O)N(C)C[C@H]1Oc2ccc(NC(=O)Nc3ccc(F)cc3)cc2CC(=O)N([C@H](C)CO)C[C@H]1C,i,-2.4,-1.4,-4.7,1.7
COc1ccc(NC(=O)N(C)C[C@@H]2Oc3c(NC(=O)c4nc5ccccc5s4)cccc3C(=O)N([C@@H](C)CO)C[C@H]2C)cc1,i,-1.5,-6.5,-7.4,-0.4
C[C@H](CO)N1C[C@H](C)[C@H](CN(C)S(=O)(=O)c2cn(C)cn2)Oc2ccc(NC(=O)CCCCCC(=O)Nc3ccccc3N)cc2CC1=O,i,-1.1,-0.2,6.1,-0.5
FC(F)(F)c1ccc(-c2nc3ccccc3s2)cc1,i,1.6,-0.2,3.0,-3.2
C[C@H](CO)N1C[C@H](C)[C@H](CN(C)C(=O)c2ccncc2)Oc2ncc(-c3ccncc3)cc2C1=O,i,-6.1,4.1,0.2,-0.5
COCC(=O)Nc1ccc2c(c1)[C@H]1C[C@@H](CC(=O)N3CCc4ccccc4C3)O[C@@H](CO)[C@H]1O2,i,-1.0,1.9,3.2,1.8
O=C(NC1CCCC1)N[C@H]1CC[C@@H](CC(=O)N2CCOCC2)O[C@@H]1CO,i,0.3,1.9,0.5,-1.6
O=C(NC1CCCC1)N[C@H]1CC[C@H](CC(=O)N2CCOCC2)O[C@@H]1CO,i,1.6,0.0,7.9,-5.3
COc1ccc(-c2ccc3c(c2)O[C@@H](CN(C)C(=O)c2ccccc2F)[C@@H](C)CN([C@@H](C)CO)S3(=O)=O)cc1,i,-5.9&0.9&1.0,-3.9&-1.4,-4.7&-3.8,5.4&3.1
Nc1c(Br)cc(Br)c2c1[nH]c(=O)c1ccccc12,i,2.5,-0.7,-17.4,6.0
C[C@@H]1CN([C@@H](C)CO)C(=O)c2cccc(NC(=O)Nc3ccc4c(c3)OCO4)c2O[C@@H]1CN(C)S(=O)(=O)c1cn(C)cn1,i,0.3,6.3,10.7,-2.5
COc1ccc(NC(=O)N2C[C@H](O)COC[C@@H]3O[C@H](CC(=O)NCc4ccccc4OC)CC[C@H]32)cc1,i,-1.3,0.0,4.5,1.2
CNC[C@H]1Oc2ccc(NC(=O)Nc3cccc4ccccc34)cc2CC(=O)N([C@@H](C)CO)C[C@@H]1C,i,0.7,-0.8,-1.3,-1.1
C[C@H](CO)N1C[C@H](C)[C@@H](CN(C)S(=O)(=O)c2ccc(Cl)cc2)Oc2ccc(NS(=O)(=O)c3cn(C)cn3)cc2CC1=O,i,1.1,-2.1,-6.1,0.1
O=C(C[C@H]1CC[C@H]2[C@@H](COC[C@H](O)CN2S(=O)(=O)c2ccc(F)cc2)O1)N[C@H]1CCN(Cc2ccccc2)C1,i,6.0,8.9,11.3,0.1
